GIRK2 activ: opens human GIRK2 potassium channels; P48051; HEK293-GIRK2 thallium flux, Thallos fluorescence; calls only for hits at 25 µM; actives 0.05% (n = 63,000); AID 1259325;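 active = among the strongest 0.2% of first-round signals and kept after retests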;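 also: first round at about 10 µM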
Target sequence (P48051 whole entry, looked up): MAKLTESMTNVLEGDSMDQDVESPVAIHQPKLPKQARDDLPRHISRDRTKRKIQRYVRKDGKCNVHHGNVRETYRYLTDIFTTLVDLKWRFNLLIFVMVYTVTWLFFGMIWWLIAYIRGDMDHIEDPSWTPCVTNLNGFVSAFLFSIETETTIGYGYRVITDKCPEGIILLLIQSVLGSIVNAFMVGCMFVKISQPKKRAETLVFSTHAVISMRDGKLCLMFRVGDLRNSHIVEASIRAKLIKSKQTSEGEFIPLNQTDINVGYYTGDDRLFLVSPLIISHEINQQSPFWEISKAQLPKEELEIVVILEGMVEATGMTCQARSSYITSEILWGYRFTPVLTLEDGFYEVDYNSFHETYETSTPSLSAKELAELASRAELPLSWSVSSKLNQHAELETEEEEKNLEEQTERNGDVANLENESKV
Calls only; i = inactive. Only part of the results is shown, so the mix of outcomes need not match the whole.

Molecule,GIRK2 activ
CO[C@H]1C[C@@H]2CC[C@@H](C)[C@@](O)(O2)C(=O)C(=O)N2CCCC[C@H]2C(=O)O[C@H]([C@H](C)C[C@@H]2CC[C@@H](O)[C@H](OC)C2)CC(=O)[C@H](C)/C=C(\C)[C@@H](O)[C@@H](OC)C(=O)[C@H](C)C[C@H](C)/C=C/C=C/C=C/1C,i
COc1ccc(OC)c(-c2cc(C(=O)NCCc3nc(C)cc(C(F)(F)F)n3)n(C)n2)c1,i
CC(CCc1ccccc1)NC(=O)c1ccc(-n2cccn2)nc1 (configuration not stated),i
COc1ccccc1-n1nnc(C(=O)NCCCn2cccn2)c1-c1ccccn1,i
O=C(Cn1cc(S(=O)(=O)N2CCCCC2)ccc1=O)NCc1ccccc1Cl,i
O=c1[nH]c2nc(N3CCN(c4ccccn4)CC3)ncc2c(=O)n1C1CCCC1,i
CCOC(=O)c1sc(NC(=O)NCc2cccs2)nc1C,i
O=C(NCc1ccccc1)Nc1ccc2c(c1)N(S(=O)(=O)c1ccc(F)cc1)CCC2,i
CSc1ccccc1C(=O)NCCc1nc2c(c(C(F)(F)F)n1)CCCC2,i
CC(=O)NC1=NN(C(C)=O)C2(S1)C(=O)N(CCC(C)C)c1c(C)cccc12 (configuration not stated),i
CCc1cc2c(=O)c(-c3nc(C)cs3)coc2cc1OCC(=O)OC,i
Cc1cc2c(=O)n(Cc3ccco3)c(SCC(=O)NCc3ccccc3)nc2s1,i
COc1nn(C)cc1C(=O)Nc1ccc(C(=O)Nc2cccc(-c3csc(C)n3)c2)cc1,i
O=c1c2nc(N3CCOCC3)sc2c(-c2ccccc2)nn1Cc1ccc(Cl)cc1Cl,i
Cc1nc2sc(C(c3ccc(F)cc3)N3CCN(Cc4ccccc4)CC3)c(O)n2n1 (configuration not stated),i
Cc1nc2ccccc2c(=O)n1-c1ccc(NC(=O)COc2ccccc2)cc1,i
CCCc1cc(=O)[nH]c(SCc2ccc(C#N)cc2)n1,i
CN(C(=O)Cn1nc2nc(N3CCCCCC3)ccn2c1=O)c1ccccc1,i
N#CCn1nc2n(CCC(=O)NC3CCCCC3)c(=O)c3ccccc3n2c1=O,i
O=C(CN1CCC(c2nnc(C(F)(F)F)o2)CC1)Nc1nccs1,i
O=C(NCCC(O)c1ccc2c(c1)OCO2)c1ccc(F)cc1F (configuration not stated),i
CCOc1ccccc1C(=O)NC1CC(=O)N(c2ccc(C)cc2)C1 (configuration not stated),i
COc1ccc(NC(=O)Cn2nc3ccc(SC4CCCCC4)nn3c2=O)cc1OC,i
O=C(c1ccc(Cn2ccnc2)cc1)N1CCN(Cc2nc3ccccc3[nH]2)CC1,i
O=C(CSc1nc2c(oc3ccccc32)c(=O)n1Cc1ccco1)Nc1ccccc1Cl,i
Cn1cc(C2=C(c3cn(CCCCC(=N)N)c4ccccc34)C(=O)NC2=O)c2ccccc21,i
Cc1cccn2c(=O)cc(OCC(=O)NCc3ccc(S(N)(=O)=O)cc3)nc12,i
CC(C)NC(=O)c1nnn(-c2cccc(Cl)c2)c1N,i
CCOC(=O)Cn1c(=O)c2c(nc3n(-c4ccc(CC)cc4)c(C)c(C)n23)n(C)c1=O,i
Cc1ccc2nc(C3CN(C(=O)c4ccc(Br)o4)C3)[nH]c2c1,i

Reformatted: entries from further up
Molecule: CCOc1ccccc1C(=O)NC1CC(=O)N(c2ccc(C)cc2)C1 (configuration not stated)
  GIRK2 activ: i

Molecule: Cc1cc2c(=O)n(Cc3ccco3)c(SCC(=O)NCc3ccccc3)nc2s1
  GIRK2 activ: i

Later entries.
Molecule,GIRK2 activ
CCOC(=O)CCC(=O)N1CCN(C(=O)c2cnn3ccccc23)CC1,i
CC(C)(Oc1ccc(Cl)cc1)C(=O)Nc1c2c(nn1CC(=O)NCc1ccccc1)CSC2,i
Cc1nc(NCCNC(=O)c2ccccn2)cc(Nc2ccccn2)n1,i
COC(=O)c1ccccc1NC(=O)c1nnn(-c2ccccc2)c1C,i
COCCN(Cc1ccsc1)S(=O)(=O)c1c(F)cccc1F,i
Cc1nc2sc(C)c(C)n2c(=O)c1NC(=O)c1ccccc1F,i
COc1ccc(S(=O)(=O)Nc2ccc3c(c2)CCC(=O)N3Cc2ccccc2)cc1F,i
C#CCOCC1CCN(C(=O)CCn2cnc3ccccc3c2=O)CC1,i
CCOC(=O)Cn1c(=O)c2c(nc3n(-c4ccccc4OC)c(C)cn23)n(C)c1=O,i
O=C(Cc1ccccc1Nc1c(Cl)cccc1Cl)NCc1ccc(C(F)(F)F)cc1,i
CCCC(=O)N1CCOCC1CN(C)C (configuration not stated),i
Cc1cc(CNC(=O)Cc2ccc(SC(C)C)cc2)c(C)o1,i
CC(C)(C)C(=O)N1CC(c2nc(-c3cccnc3)no2)C1,i
Cc1ccc(S(=O)(=O)N2CCN(c3ccc(C)c(Cl)c3)CC2)cc1,i
O=C(Nc1nc(C(=O)N2CCN(c3ccccn3)CC2)co1)C1CC1,i
CCCCCC(O)/C=C/[C@H]1C(O)CC(=O)[C@H]1CCCCCCC(=O)O (some centres not stated),i
COc1ccc(OCc2noc(CNC(=O)c3cccc(-n4cnnn4)c3)n2)cc1,i
COCCN1CCc2nc(SCc3c(F)cccc3Cl)[nH]c(=O)c2C1,i
COc1cc2nc(N3CCN(C(=O)c4ccco4)CC3)nc(N)c2cc1OC,i
O=C(Cn1cc(-c2nc(-c3cccs3)no2)ccc1=O)c1ccc2c(c1)OCO2,i
COc1cccc(COc2cn(C)c(C(=O)Nc3ccc4c(c3)OCCO4)cc2=O)c1,i
O=C(Nc1ccccc1-c1ccc(=O)[nH]n1)c1cccs1,i
CCOc1ccc(NC(=O)Cn2cc(S(=O)(=O)c3ccc(C)c(C)c3)c(=O)c3ccccc32)cc1,i
Cc1cccc(C(=O)N2CCCC(c3nnc(C)s3)C2)c1 (configuration not stated),i
CCOc1ccc(S(=O)(=O)N(C)C2CCCCC2)cc1,i
O=C(NCCC(O)c1ccc2c(c1)OCO2)c1cc2ccccc2o1 (configuration not stated),i
Cc1cc(C)n(C(C)CNS(=O)(=O)c2ccc(Cl)cc2)n1 (configuration not stated),i
Cc1cc(N2CCN(C(=O)c3cc4ccccc4oc3=O)CC2)nc(NC2CCCCC2)n1,i
c1ccc(Cn2c(N3CCNCC3)nc3ccccc32)cc1,i
CCOc1ccccc1NC(=O)N1CCCC(c2nnc(C(F)(F)F)o2)C1 (configuration not stated),i
Cc1nc(-c2ccccc2Cl)sc1CNC(=O)Cn1cnnn1,i
O=c1n(Cc2cccc(C(F)(F)F)c2)nc2c(S(=O)(=O)N3CCCCCC3)cccn12,i
COc1cccc2cc(C(=O)N3CC(c4nc(Cc5ccccc5)no4)C3)oc12,i
COC(=O)c1ccc(N2Cc3cc(Cl)ccc3OCC2=O)cc1,i
COc1c(-c2ccc(O)cc2)oc2cc(O)cc(O)c2c1=O,i
CC1CCN(S(=O)(=O)c2cccn(CC(=O)NCc3cccs3)c2=O)CC1,i
COc1cc[nH]c1/C=C1\C(=O)Nc2ccccc21,i
O=C(NCCC(O)c1cccc2ccccc12)Nc1ccc(C(F)(F)F)cc1 (configuration not stated),i
O=S(=O)(c1ccc2c(c1)OCCO2)N1CCC(Oc2ccc(Cl)cn2)CC1,i
O=C(NCC(=O)N1CCC(Oc2ccc(C(F)(F)F)cn2)CC1)c1ccccc1,i
COc1ccc(-c2csc3c(=O)[nH]c(N4CCCC(C(=O)NC5CC5)C4)nc23)cc1OC (configuration not stated),i
COc1ccccc1-n1nnc(C(=O)NCCc2c[nH]c3ccccc23)c1-c1ccccn1,i
COc1ccc2c(=O)c3c(oc2c1)C(=O)N(CCCN(C)C)C3c1cccc([N+](=O)[O-])c1 (configuration not stated),i
CCCN1C(=O)CCc2cc(NC(=O)c3cc(OC)cc(OC)c3)ccc21,i
Cc1ccccc1-n1ccn(Cc2nc(-c3ccc(C(C)(C)C)cc3)no2)c(=O)c1=O,i
Cn1c(=O)n(Cc2ccccc2F)c(=O)c2c(N3CCN(C(=O)c4ccco4)CC3)ccnc21,i
CC(=O)c1cccc(C(=O)NC2CCN(C(=O)c3cc(-c4ccccc4)n[nH]3)CC2)c1,i
Cc1c(C)n2c3c(=O)n(C)c(=O)n(C)c3nc2n1CCCN1CCN(c2ccccc2F)CC1,i
CCOC(=O)Cn1nc(-c2ccccc2)c2cnc3c(F)cc(F)cc3c21,i
COCCn1c(=O)c2c(nc3n(CCc4ccc(OC)c(OC)c4)c(C)c(C)n23)n(C)c1=O,i
COc1ccccc1OCC(=O)NCC#CCN(C(C)C)C(C)C,i
COc1cccc(-n2ccn(CC(=O)NCc3ccc(C)cc3)c(=O)c2=O)c1,i
CCn1c(SCC(=O)Nc2cccc(C(C)=O)c2)nc2c(-c3ccc(C)cc3)csc2c1=O,i
O=C(Nc1nc(CN2CCc3ccccc3C2)cs1)c1cccc(Cl)c1,i
CC(C)(C)Cc1nnc(C2CCCN(C(=O)NCc3ccc(Cl)cc3)C2)o1 (configuration not stated),i
CCOc1ccccc1-n1c(C)cn2c3c(=O)n(C)c(=O)n(C)c3nc12,i
COc1ccccc1CCNC(=O)c1ccc(-n2cccn2)nn1,i
CCOc1ccc(NC(=O)CSc2ncc(S(=O)(=O)c3ccc(C)cc3)c(N)n2)cc1,i
CCN1CCN(C(=O)c2cc3c(=O)n(C)c(=O)n(C)c3n2Cc2ccccc2)CC1,i
O=C(CSc1nc2ccccc2s1)N1CCC(c2nnc(C3CC3)o2)CC1,i

More entries
Molecule,GIRK2 activ
COc1cc(NC(=O)Nc2cccc(-c3nc4ccccc4[nH]3)c2)cc(OC)c1OC,i
O=C(CN1CCC(COCc2ccc(F)cc2)CC1)N1CCc2ccccc21,i
CCCc1ccc(C(=O)N(Cc2ccsc2)CC(F)(F)F)cc1,i
O=C(Nc1nnc(-c2ccc(Cl)s2)o1)c1cc(-c2ccccc2)on1,i
CCCN1C(=O)COc2ccc(-c3csc(NC(=O)c4ccc5c(c4)OCO5)n3)cc21,i
COc1ccc(C2OC(c3ccc(O)cc3)C(C)C2C)cc1OC (configuration not stated),i
O=S(=O)(c1cccc(Cl)c1)N1CCC(Oc2ccc(C(F)(F)F)cn2)CC1,i
Cc1ccc(CNC(=O)Cc2ccc(-n3c(=O)[nH]c4ccsc4c3=O)cc2)cc1,i
CC(=O)Nc1cccc(C2=NN(C(=O)c3ccco3)C(c3cccs3)C2)c1 (configuration not stated),i
Cn1c(NC(=O)c2cccc([N+](=O)[O-])c2)c(-c2cccs2)c(=O)c2ccccc21,i
COc1ccc2c(=O)c3c(oc2c1)C(=O)N(CCN(C)C)C3c1ccc(Cl)c(Cl)c1 (configuration not stated),i
O=C(Nc1cccc(C(F)(F)F)c1)Nc1ccc2cn[nH]c2c1,i
Cn1c(=O)[nH]c(=O)c2c1nc(NCC(=O)O)n2CC(O)COc1ccccc1 (configuration not stated),i
COCC(=O)N1CCN(CC(F)(F)F)CC1,i
O=C(NCCN1CCN(c2ccc(Cl)cc2)CC1)C(=O)NCC(F)(F)F,i
O=C(Cc1ccc(F)cc1)NCc1cc(-c2ccncc2)n(C2CCCC2)n1,i
COc1ccc(S(=O)(=O)Nc2nc(C)c(C(=O)NCc3ccccc3OC)s2)cc1,i
O=c1c2nc(N3CCCC3)sc2c(-c2cccs2)nn1Cc1cccc(C(F)(F)F)c1,i
Cc1cccc2sc(N3CC(OC(=O)C(C)Oc4ccccc4)C3)nc12 (configuration not stated),i
COCCn1c(=O)c2c(nc3n2CCCN3c2cccc(C)c2)n(C)c1=O,i
CC(C(=O)Nc1cc2ccccc2oc1=O)n1nc(-c2ccccc2)ccc1=O (configuration not stated),i
CN(C)S(=O)(=O)c1ccc(-c2nc(C#N)c(NCc3ccccc3Cl)o2)cc1,i
Cc1cn2c3c(=O)n(CCN4CCCCC4)c(=O)n(C)c3nc2n1C(C)c1ccccc1 (configuration not stated),i
COc1ccc(S(=O)(=O)NCCC(=O)N2CCOCC2)cc1N(C)S(C)(=O)=O,i
COc1ccccc1-c1nc(C#N)c(N2CCN(C(=O)c3cccs3)CC2)o1,i
Cc1cc(C)n(-c2nc(CCNC(=O)c3snnc3C)cs2)n1,i
Cc1cccc2sc(N3CC(OC(=O)c4cccc(-n5cnnn5)c4)C3)nc12,i
Cc1ccc(NC(=O)c2ccoc2)cc1-c1ccc(C(=O)NCC2CC2)cc1,i
COC(=O)COc1ccc2c(c1C)O/C(=C\c1ccc3c(c1)OCO3)C2=O,i
COC(=O)c1ccccc1-c1c2ccc(=N)cc-2oc2cc(N)ccc12,i

Arranged by heavy-atom count (largest number first): part of the list above
Molecule,GIRK2 activ
O=c1c2nc(N3CCCC3)sc2c(-c2cccs2)nn1Cc1cccc(C(F)(F)F)c1,i
COc1ccccc1-c1nc(C#N)c(N2CCN(C(=O)c3cccs3)CC2)o1,i
COc1ccc(C2OC(c3ccc(O)cc3)C(C)C2C)cc1OC (configuration not stated),i

The list goes on.
Molecule,GIRK2 activ
COc1ccc(/C=C2/SC(=O)N(CCCC(=O)Nc3ccccc3O)C2=O)cc1,i
O=c1nc2scc(CN3CCOCC3)n2c2sc3c(c12)CCCC3,i
O=C(Nc1ccc(Cl)c2ncsc12)c1cccc(F)c1,i
COCCN(Cc1ccoc1)C(=O)COc1ccc(Cl)cc1Cl,i
COc1ccccc1CCNC(=O)C(=O)NC1CCCCCC1,i
COc1cccc2cc(C(=O)NC3CNC(=O)C3)oc12 (configuration not stated),i
COc1ccccc1CCn1c2c(c(=S)[nH]c1=O)CCC2,i
COc1ccc(CNC(=O)N2CCN(Cc3nnnn3-c3cccc(F)c3)CC2)cc1,i
CCc1ccc(C2C(C(C)=O)=C(C)Nc3ncnn32)cc1 (configuration not stated),i
Cc1ccc(-c2cc(C(F)(F)F)nn2-c2ccc(S(N)(=O)=O)cc2)cc1,i
CC(C)C(=O)Nc1c(-c2ccccn2)nsc1C(=O)NCc1ccccc1C(F)(F)F,i

High-throughput results as filed in PubChem BioAssay.
